# Source: PubChem BioAssay (National Center for Advancing Translational Sciences (NCATS))
# miR-21 reporter: miR-21 reporter, rising signal; 340,000 tested, under 10 active; HeLa miR-21 FLuc reporter, luciferase, 48 h; Potency, µM (titrated, usually from 38.3 µM), for the others: top-dose reporter change, positive = more light; active = well fitted rising curve with a large enough effect; inconclusive = small, poorly fitted or top-dose-only effect; inactive = no such curve, though single readings can be large or run the other way;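 further: % of control where 0% means no effect; miR-21 action dims this reporter so a rising signal means less miR-21 action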
#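 HeLa cells endogenously expressing miR-21, stably carrying CMV-driven firefly luciferase with a downstream miR-21 binding site, 2000 cells/well. Titrations up to approximately 40 uM, 48 hours; luciferase luminescence read.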
# Rango release inh: inhibitors of RanGTP-induced Rango-importin beta complex dissociation; O95149+P62826; Biochemical FRET Rango-importin beta, RanGTP-induced dissociation; Potency, µM (titrated, usually from 46.1 µM), without a hit: top-dose activity change, negative = inhibition; 340,000 tested, 0.071% active; AID 540253; active means falling FRET ratio curve, often poorly fitted, with flat reads before Ran was added; inconclusive means other falling curves, or compound fluorescence or quenching; inactive means flat or rising ratio curve;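 further: potency means the concentration at half of the fitted maximal effect; % of control where 0% means no effect; nearly all actives have a fitted effect of over 45% in size; -100% = wells without RanGTP and RCC1; the record marks most hits as doubtful in a second field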
#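 FRET read at 45 min, room temperature: inhibitors block the CFP/YFP signal rise when RanGTP (0.6 uM Ran, 2 mM GTP, 0.2 uM RCC1) frees Rango (0.1 uM) from importin beta (0.25 uM). Pre-read after 5 min compound exposure flags interference.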
# Rango complex inh: Rango-importin beta binding inhibition | Rango CFP/YFP FRET sensor + importin beta, 45 min | Potency, µM (highest dose often 92.2 µM), inactives show at the top dose inhibition of complex formation | 340,000 tested, 0.031% active | AID 540263; active = rising FRET ratio curve, often small or poorly fitted; inconclusive = mostly compound fluorescence or quenching in the first reads; inactive = flat curves in all reads;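 further: potency means the concentration at half of the fitted maximal effect; 0% = DMSO wells and 100% = buffer wells lacking importin beta; nearly all actives have a fitted effect of over 15% in size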
# Target sequence (Q14974 whole entry, looked up): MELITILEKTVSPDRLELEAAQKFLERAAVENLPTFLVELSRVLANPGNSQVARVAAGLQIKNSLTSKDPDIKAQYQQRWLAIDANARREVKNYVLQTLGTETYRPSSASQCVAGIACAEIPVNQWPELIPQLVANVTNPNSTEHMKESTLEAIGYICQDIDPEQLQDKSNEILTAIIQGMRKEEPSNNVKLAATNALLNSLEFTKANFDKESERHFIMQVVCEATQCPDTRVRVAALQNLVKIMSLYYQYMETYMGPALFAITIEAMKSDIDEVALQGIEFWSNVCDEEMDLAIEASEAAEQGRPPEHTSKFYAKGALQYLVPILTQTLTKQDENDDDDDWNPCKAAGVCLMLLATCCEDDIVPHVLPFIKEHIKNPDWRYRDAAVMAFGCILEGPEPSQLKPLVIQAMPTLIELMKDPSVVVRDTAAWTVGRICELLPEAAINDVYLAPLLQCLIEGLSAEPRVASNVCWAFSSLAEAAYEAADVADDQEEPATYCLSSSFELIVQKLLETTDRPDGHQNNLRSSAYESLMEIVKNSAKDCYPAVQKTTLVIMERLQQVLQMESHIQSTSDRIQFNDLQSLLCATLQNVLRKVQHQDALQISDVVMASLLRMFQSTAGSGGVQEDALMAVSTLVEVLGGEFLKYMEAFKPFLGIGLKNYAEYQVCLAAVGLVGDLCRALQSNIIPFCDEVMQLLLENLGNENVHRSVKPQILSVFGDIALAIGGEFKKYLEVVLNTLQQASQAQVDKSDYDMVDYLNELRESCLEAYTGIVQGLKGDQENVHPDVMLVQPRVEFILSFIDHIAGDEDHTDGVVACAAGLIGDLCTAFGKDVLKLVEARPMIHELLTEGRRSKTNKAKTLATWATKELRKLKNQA
#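 Inhibition scored from the CFP 486 nm/YFP 530 nm FRET ratio 45 min after adding 0.125 microM importin beta to 50 nM Rango biosensor preincubated 5 min with compound (room temperature, PBS with DTT, Tween-20, BSA). No-importin wells as positive control.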
# GLA inh pH 4.5: blocks human alpha-galactosidase A at pH 4.5; P06280; activity change, negative = inhibition, % at 105 µM; purified enzyme, 4-MU-alpha-Gal fluorescence, pH 4.5; 230,000 tested, under 10 active; inconclusive = small, poorly fitted or top-dose-only inhibition, or a rising curve; inactive = flat fitted curve, though single readings scatter; no compound was filed as active;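 further: 0% = full activity with enzyme and -100% = basal without enzyme; dose as in the result columns while the protocol names 77 µM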
# * marks the source's active call; other numbers are inactive results; ? = inconclusive; . = not tested or not shown. These rows are one share of the data (hit frequency here may not be typical).
SMILES	miR-21 reporter	Rango release inh	Rango complex inh	GLA inh pH 4.5
Cc1oc(-c2ccccc2Cl)nc1CSCC(=O)NC1CCCC1	2%	-3%	4.4%	7
Cc1ccn(CCSCC(=O)O)n1	1%	9%	2.2%	1
CN1CCN(NC(=O)Nc2ccc(Br)cc2Cl)CC1	-58%	-1%	-1.1%	.
O=S(=O)(c1c(F)cccc1F)N1CCN(C(=S)NCc2ccc3c(c2)OCO3)CC1	-1%	3%	2.9%	-7
CCOC(=O)c1ccsc1NC(=O)CCS(=O)(=O)c1ccccc1	19%	-20%	-4.7%	.
Cc1cc(N2CCCN(C)CC2)nc2cc(Cl)ccc12	-27%	-14%	7.4%	3
C(#CC12CC3CC(CC(C3)C1)C2)CN1CCOCC1	-1%	4%	-0.8%	1
O=C(NCCc1c[nH]c2ccccc12)C1CCN(S(=O)(=O)c2ccc(F)cc2)CC1	6%	0%	-4.1%	.
C/C(Cc1ccccc1)=N\NC(=O)CNC(=O)COc1cccc(C)c1	0%	13%	-4.3%	11
CCCNC(=O)C(Sc1ccccc1)c1ccccc1 (stereo unspecified)	-1%	-1%	-1.3%	-6
COc1ccc(OC)c(N(CC(=O)N2CCCC2)S(C)(=O)=O)c1	2%	-16%	-0.2%	.
Cc1cccc(C)c1NC(=O)CSc1nnc(-c2ccoc2C)n1CCc1ccccc1	0%	5%	0.1%	3
Nc1nc(SCC(=O)N2CCN(c3ccccc3)CC2)n[nH]1	-3%	4%	-0.1%	.
COc1ccccc1OCC(=O)Nc1oc(-c2ccccc2)c(-c2ccccc2)c1C#N	1%	9%	-3.3%	-9
CCCC(CCC)C(=O)NNc1cc(=O)c2c(=O)n(C)c(=O)n(C)c2[nH]1	-1%	9%	3.0%	-4
COc1ccc(-c2cn3cccnc3n2)cc1NC(=O)C1CCCC1	-6%	2%	6.9%	6
CCOC(=O)C1=C(C)NC2=C(C(=O)c3ccccc32)C1c1cccnc1 (stereo unspecified)	-8%	-10%	3.3%	3
O=C(COc1cccnc1[N+](=O)[O-])N1N=C(c2ccc(Cl)cc2)CC1c1ccco1 (stereo unspecified)	-8%	20%	-3.5%	10
Cc1nc(SCC(=O)O)c(C#N)c2c1CCCC2	-6%	-12%	-2.1%	-19
Cc1cccc(N2N=C(C(=O)OCC(=O)c3ccccc3)CCC2=O)c1	.	-1%	2.6%	.
COc1ccc(-c2cc(C(=O)Nc3ccccc3O)c3ccccc3n2)cc1OC	4%	13%	4.1%	6
C#CCNc1c2c(nc3nnnn13)CCCC2	-4%	3%	-0.5%	2
Cc1c(C(=O)N2c3ccccc3CC2C)oc2ccccc12 (stereo unspecified)	-19%	-5%	1.5%	.
CN(Cc1cccs1)C(=O)CSc1nnnn1C	-2%	2%	-0.6%	14
CCCOc1ccc(/C=N/NC(=O)CSCc2ccc([N+](=O)[O-])cc2)cc1OCC	-5%	-13%	-0.2%	-15
Cc1ccc2cc(CN(Cc3ccc4c(c3)OCO4)Cc3nnnn3Cc3ccco3)c(=O)[nH]c2c1C	-10%	0%	-1.5%	-10
O=C(c1cccc([N+](=O)[O-])c1)n1nc(-c2ccccc2)nc1NCc1ccccc1	-54%	-12%	4.0%	3
O=C(NCC(=O)N(Cc1ccc(F)cc1)C(C(=O)NC1CCCC1)c1ccco1)c1ccco1 (stereo unspecified)	-3%	14%	1.8%	2
COc1cc2c(cc1OC)CN(S(=O)(=O)c1ccccc1F)CC2	-1%	-7%	-3.9%	.
O=C(NCc1ccco1)C(=O)NCC1OCCCN1S(=O)(=O)c1ccc(F)cc1 (stereo unspecified)	-2%	-5%	12%	-5
O=C(O)CSc1nnc(-c2cccc(S(=O)(=O)N3CCOCC3)c2)n1-c1ccc(F)cc1	.	8%	-0.5%	.
Cc1ccc(C)c(S(=O)(=O)N2CCN(C(=O)CCC(=O)c3cc(C)sc3C)CC2)c1	.	16%	1.7%	.
O=Nc1c(-c2ccccc2)cc2ccccn12	-34%	0%	4.1%	-22
Cc1cccc(C(=O)NC(=S)Nc2ccc(S(=O)(=O)N3CCCCC3)cc2)c1	18%	-14%	4.4%	7
COc1ccc2oc(=O)c(C(=O)NCc3ccc(C)cc3)cc2c1	-1%	-6%	-2.6%	.
COc1cc(OC)cc(C(=O)OCC(=O)NC(C)CCc2ccccc2)c1 (stereo unspecified)	2%	-10%	-1.0%	.
COc1ccc(C2CC(c3ccccc3)=NN2C(=O)COC(=O)CNC(=O)c2ccccc2)cc1 (stereo unspecified)	-13%	-12%	-1.7%	-13
O=C(Nc1cccc(C(=O)N2CCCC2)c1)c1ccccc1	-4%	5%	-2.8%	-3
CCO[C@H]1OC(C(=O)N2CCOCC2)=C[C@@H](C)[C@@H]1CCCO	1%	-2%	1.4%	1
CC(NC(=O)COC(=O)CCc1ccccc1)c1ccccc1 (stereo unspecified)	1%	2%	-0.1%	-6
Cc1ccc(C)c(N2CCN(S(=O)(=O)c3cc4c(cc3Cl)NC(=O)CO4)CC2)c1	-1%	0%	5.8%	.
Cc1ccc2c(c1)nnn2C1CCN(CC(=O)NCc2ccccc2F)CC1	0%	0%	0.9%	9
COc1ccc(CNC(=O)CN(CCC(C)C)S(=O)(=O)c2ccc3c(c2)OCCO3)cc1	22%	0%	-1.9%	-16
CCCCCC(=O)NNC(=O)c1ccc(-c2ccccc2)cc1	-7%	15%	4.1%	3
COCc1nnc(NC(=O)c2ccccc2Oc2ccccc2)s1	-13%	7%	3.7%	-1
CC(c1ccccc1)N1C(=O)OC(C)(C)C1(C)O (stereo unspecified)	.	20%	-0.6%	.
Cc1nc(C(=O)NC2CC2)sc1C1(C)CC(c2cccc([N+](=O)[O-])c2)=NO1 (stereo unspecified)	-2%	-1%	-0.2%	-22
O=C(O)/C=C/c1ccc(OCc2cccc(F)c2)cc1	0%	-9%	4.8%	-1
CCC[C@H]1COCCS(=O)(=O)N1Cc1ccccc1F	-1%	24%	1.0%	.
COc1ccc(N2CCN(C3CCCN(C(=O)CSC)C3)CC2)cc1 (stereo unspecified)	-1%	7%	-1.4%	.
O=C(O)CCc1ccc(-c2cccs2)n1NC(=O)c1ccc(Cl)cc1Cl	5%	-1%	-1.0%	-12
CC(CNc1ccc([N+](=O)[O-])cc1)NC(=O)c1ccccc1Br (stereo unspecified)	5%	0%	-4.6%	-13
CC(C)(C)c1ccc(C2C(C(=O)c3ccco3)=C(O)C(=O)N2CC2CCCO2)cc1 (stereo unspecified)	-1%	-1%	-1.3%	.
CC1=CC(C)(C)N2C(=O)C3(C(C#N)=C(N)Oc4cc(O)ccc43)c3cccc1c32 (stereo unspecified)	-1%	-2%	0.6%	-1
COC(=O)C1C2CC3c4[nH]c5cc(OC)ccc5c4CCN3CC2CC(OC(=O)CC(C)=O)C1OC (stereo unspecified)	.	?	?	.
CCC(C)c1ccccc1NC(=O)CN1CCN(C/C=C/c2ccccc2)CC1 (stereo unspecified)	-1%	-17%	-0.3%	-4
O=S(=O)(/N=C(/Nc1ccc(Cl)c(S(=O)(=O)N2CCOCC2)c1)c1ccc(F)cc1)c1ccccc1	7%	1%	2.3%	.
COC(=O)CSc1cc(C(=O)c2nccn2C)c2ccccc2n1	-7%	0%	-4.2%	-7
C=CCNC(=S)NNC(=O)CSc1nc2ccccc2s1	-29%	24%	-2.5%	0
CS(=O)(=O)c1ccc(NS(=O)(=O)c2ccc3ccccc3c2)cc1	-4%	-1%	0.6%	.

# Retrieved by structure from above, 4 records:
SMILES	miR-21 reporter	Rango release inh	Rango complex inh	GLA inh pH 4.5
CN(Cc1cccs1)C(=O)CSc1nnnn1C	-2%	2%	-0.6%	14
Cc1cccc(C)c1NC(=O)CSc1nnc(-c2ccoc2C)n1CCc1ccccc1	0%	5%	0.1%	3
COc1ccccc1OCC(=O)Nc1oc(-c2ccccc2)c(-c2ccccc2)c1C#N	1%	9%	-3.3%	-9
Cc1ccc2cc(CN(Cc3ccc4c(c3)OCO4)Cc3nnnn3Cc3ccco3)c(=O)[nH]c2c1C	-10%	0%	-1.5%	-10

# Single records, from the list above.
# `Cc1ccc(C)c(N2CCN(S(=O)(=O)c3cc4c(cc3Cl)NC(=O)CO4)CC2)c1` as listed: miR-21 reporter = -1%; Rango release inh = 0%; Rango complex inh = 5.8%; GLA inh pH 4.5 = .
# `CCCOc1ccc(/C=N/NC(=O)CSCc2ccc([N+](=O)[O-])cc2)cc1OCC` as listed: miR-21 reporter = -5%; Rango release inh = -13%; Rango complex inh = -0.2%; GLA inh pH 4.5 = -15
# `CN(Cc1cccs1)C(=O)CSc1nnnn1C` as listed: miR-21 reporter = -2%; Rango release inh = 2%; Rango complex inh = -0.6%; GLA inh pH 4.5 = 14

# The results go on.
SMILES	miR-21 reporter	Rango release inh	Rango complex inh	GLA inh pH 4.5
CCOC(=O)Cc1csc(NC(=O)c2cc(C)c(C)s2)n1	.	0%	-1.6%	.
CC1CCCCC1NC(=O)CCCn1c(=S)[nH]c2ccsc2c1=O (stereo unspecified)	-2%	-16%	-0.3%	.
CCOC(=O)c1c(NC(=O)COC(=O)c2nc(Cl)ccc2Cl)sc2c1CCC2	4%	-17%	-5.1%	-7
COCCn1c(SCC#N)nnc1-c1ccccc1	-6%	-4%	0.1%	-1
CCN(CC)Cc1c(O)c(Cl)cc2c3c(c(=O)oc12)CCCC3	0%	?	?	?
Cc1ccc2nc3nc(NCC4CCCO4)c(C(=O)NC4CCCC4)cc3c(=O)n2c1 (stereo unspecified)	-3%	?	?	15
CN1CCC(=NNC(=O)CSc2ccc(Cl)cc2)CC1	1%	-15%	-0.5%	3
CCOC(=O)[C@@H]1CCN(Cc2ccccc2)C[C@H]1c1ccccc1	2%	23%	4.6%	-5
Cc1[nH][nH]c(=O)c1C(c1ccc(Br)cc1)c1c(C)[nH][nH]c1=O	-5%	-8%	2.8%	.
C=CCn1c(C)c(C(C)=O)c(N2CCN(C(c3ccccc3)c3ccccc3)CC2)nc1=S	25%	-4%	0.1%	-9
CC(=O)Nc1cccc(NC(=O)c2ccccc2OCc2ccccc2)c1	21%	2%	-3.5%	.
NS(=O)(=O)c1ccc(-c2c(-c3ccccc3)sc3ccccc23)cc1	.	-1%	-0.3%	.
Cc1cc(C)cc(NC(=O)COC(=O)Cc2ccccc2F)c1	.	-12%	1.2%	.
O=C(O)c1ccc(NS(=O)(=O)c2ccc(Cl)c(Cl)c2)cc1O	0%	24%	2.0%	1
Cc1ccc(-c2cc(C(=O)N(C)CC(=O)Nc3ccccc3Br)c3ccccc3n2)o1	.	-6%	?	.
CCOC(=O)c1sc(NC(=O)CSc2nncs2)c(C(=O)OCC)c1C	-9%	-23%	1.2%	-7
c1ccc(C2Nc3ccccc3-c3nc4ccccc4n32)cc1 (stereo unspecified)	-6%	3%	1.1%	?
CCOc1ccc(OCCCC(=O)Nc2cc(Cl)ccc2-n2cncn2)cc1	.	8%	-0.3%	.
CCOc1cc(-c2nc(-c3ccccc3OC)no2)cc(OCC)c1OCC	-8%	1%	0.2%	-15
COc1ccc(S(=O)(=O)N2CCOCC2)cc1Br	-10%	-14%	-0.1%	-8
C[C@H](CO)N1C[C@H](C)[C@@H](CN(C)Cc2ccc(Cl)c(Cl)c2)Oc2c(NC(=O)C3CC3)cccc2C1=O	.	15%	0.6%	.
O=C(CSc1nnc(NC(=O)c2ccc(F)cc2F)s1)NC1CCCC1	-18%	31%	0.3%	.
O=C(COc1cccc(F)c1)Nc1nc(-c2ccncc2)cs1	.	-15%	5.3%	.

# Another view of part of the listing above:
> O=C(NCC(=O)N(Cc1ccc(F)cc1)C(C(=O)NC1CCCC1)c1ccco1)c1ccco1 (stereo unspecified)
  miR-21 reporter: -3% | Rango release inh: 14% | Rango complex inh: 1.8% | GLA inh pH 4.5: 2

> COc1ccc(CNC(=O)CN(CCC(C)C)S(=O)(=O)c2ccc3c(c2)OCCO3)cc1
  miR-21 reporter: 22% | Rango release inh: 0% | Rango complex inh: -1.9% | GLA inh pH 4.5: -16
